# Screening data from PubChem BioAssay.
# Sfp inh – inhibitors of Bacillus subtilis Sfp phosphopantetheinyl transferase; Q9F4F7; Biochemical Sfp PPTase activity, qHTS; Potency, µM, for inactives: max response, negative = inhibition, actives largely listed as inhibitors; 3.5% of 310,000 active; AID 1490; active = well fitted inhibition curve with a large enough effect; inconclusive = small, poorly fitted or top-dose-only effect, or another doubt; inactive = no such curve, though single readings can be large or run the other way;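 note: the enzyme is Sfp with the accession as filed and its product quenches rhodamine fluorescence; potency is the fitted concentration of half-maximal effect; 0% = enzyme reaction without inhibitor and -100% = no enzyme wells; top concentration of the series not given in the record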
#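 With Hepes-Na pH 7.6 buffer containing 10 mM MgCl2, Sfp (15 nM) modified BHQ-2-YbbR (12.5 uM) using rhodamine-CoA (5 uM). Two reads 30 minutes apart at 525/598 nm yielded each well's rate.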
# CtBP-E1A inh – inhibitors of CtBP/E1A interaction; activity change, % (concentration not given with the values); AlphaScreen GST-E1A/His-CtBP binding, 1536-well; stronger effect = lower value; control for the full effect not named in the record; AID 651724; 0.49% of 340,000 active; in the data active means activity change below about -65%; inconclusive means about -30% to -65%; inactive means above about -30%; note: % is set by controls: 0 for no effect and ±100 for the full control effect
#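 In 5 uL wells, 23 nL compound meets equimolar GST-E1A and His-CtBP (5X stock 125 nM each) for 2 h, 37 °C. Beads (5X, 50 ug/mL) then 1 h, 37 °C, dark.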
# TRPV1 potentiator – enhances activation of the human vanilloid receptor TRPV1; Q8NER1; TRPV1-expressing cells, Fluo-8 calcium influx, capsaicin EC20 potentiation; host cell line not named in the record; control for the full effect not named in the record; potentiation, % at 8.33 µM; 0.02% of 320,000 active; active means potentiation above 80%; inconclusive means 30% to 80%; inactive means below 30%; note: 0% is about no effect
# Target sequence (Q8NER1 whole entry, looked up): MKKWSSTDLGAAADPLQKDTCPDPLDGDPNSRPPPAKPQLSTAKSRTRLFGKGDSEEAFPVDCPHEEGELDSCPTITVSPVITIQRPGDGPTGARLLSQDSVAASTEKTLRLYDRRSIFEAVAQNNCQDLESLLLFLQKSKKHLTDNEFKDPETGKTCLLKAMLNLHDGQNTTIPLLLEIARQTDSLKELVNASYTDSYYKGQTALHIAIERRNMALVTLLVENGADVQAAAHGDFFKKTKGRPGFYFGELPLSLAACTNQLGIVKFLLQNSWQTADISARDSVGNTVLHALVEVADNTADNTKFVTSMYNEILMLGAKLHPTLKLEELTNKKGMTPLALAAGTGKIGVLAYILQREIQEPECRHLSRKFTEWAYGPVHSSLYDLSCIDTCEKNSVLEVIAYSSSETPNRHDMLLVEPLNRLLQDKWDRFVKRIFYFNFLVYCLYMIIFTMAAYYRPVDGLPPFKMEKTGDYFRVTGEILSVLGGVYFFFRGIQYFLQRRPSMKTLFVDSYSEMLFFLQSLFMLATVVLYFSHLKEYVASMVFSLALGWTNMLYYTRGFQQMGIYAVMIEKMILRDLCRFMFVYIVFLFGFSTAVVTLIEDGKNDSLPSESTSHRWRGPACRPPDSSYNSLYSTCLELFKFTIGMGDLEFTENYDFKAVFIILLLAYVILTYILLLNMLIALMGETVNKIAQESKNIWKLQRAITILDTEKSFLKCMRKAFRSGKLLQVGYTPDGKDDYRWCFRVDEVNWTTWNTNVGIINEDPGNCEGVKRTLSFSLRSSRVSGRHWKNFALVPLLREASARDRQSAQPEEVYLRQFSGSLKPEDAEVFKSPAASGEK
#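 Cells expressing TRPV1 were dye-loaded with Fluo-8 and read kinetically: 10 s baseline, 3 min after compound (agonist portion), then 2 min after EC20 capsaicin (allosteric enhancer portion). Calcium-bound dye fluorescence at 480/520 nm.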
# D2 PAM – positive allosteric modulators of human D2 dopamine receptor; P14416; DiscoveRx D2 beta-arrestin cells, luminescence, 90 min; 100% = 57 uM dopamine signal; potentiation, % (test concentration not listed); 0.23% of 360,000 active; active = potentiation of 50% or more; inconclusive = 30% to 50%; inactive = 30% or less;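 note: compound concentration not given in the record; tested on top of an EC20 dose of dopamine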
#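 PathHunter beta-arrestin assay in DiscoveRx D2 cells. Compounds were added with an EC20 of dopamine (50 nM final) for 90 min at 37 deg C. Luminescence was read 1 h after detection reagent, with 57 uM dopamine as the EC100 control.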
# PINK1 expr mod – modulators of PINK1 expression; PINK1 immunofluorescence, high-content cytometry, 24 h; Potency, µM (series often up to 76.6 µM), for the others: top-dose activation (PINK1 increase), usual class: activators; 0.2% of 410,000 active; AID 624263; active = well fitted activation curve with a large enough effect; inconclusive = small, poorly fitted or top-dose-only effect; inactive = flat fitted curve, though single readings scatter; cell line not stated here;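 note: potency is the fitted concentration of half-maximal effect; % of control where 0% means no effect; nearly all actives have a fitted effect of over 65% in size; a mitochondrial uncoupler was the plate control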
#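 A stable cell line was treated with compounds at 5 concentrations for 24 hours, with CCCP as control. PINK1 levels and mitochondrial localization were measured by immunofluorescence with mitochondrial, cell and nuclear markers after fixation, read by laser-scanning cytometry.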
# D2 agonist – activates the human D2 dopamine receptor. P14416. DiscoveRx PathHunter D2 beta-arrestin, luminescence, 90 min; 100% = 57 uM dopamine signal. activation, % (test concentration not listed). 0.084% of 360,000 active. AID 624465; in the data active = activation above about 40%; inconclusive = about 15% to 40%; inactive = below about 15%; note: compound concentration not given in the record; the text of the record calls up to 30% inactive
#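 DiscoveRx PathHunter D2 beta-arrestin cells (2,100/well) attached overnight, then compound-stimulated 90 min at 37 C in HBSS/10 mM HEPES/0.1% Tween-20 buffer; beta-galactosidase complementation read by luminescence after 1 h at ambient temperature. Dopamine 57 uM final (EC100) as control.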
# Six1-Eya2 blk – inhibitors of human Six1/Eya2 interaction | 0.56% of 360,000 active | activity change, % (test concentration not listed) | AlphaScreen GST-Six1/His-Eya2 binding, biochemical; stronger effect = lower value; control for the full effect not named in the record | Q15475+O00167 | AID 651725; in the data active = activity change below about -65%; inconclusive = about -30% to -65%; inactive = above about -30%; note: % is set by controls: 0 for no effect and ±100 for the full control effect; compound concentration not given in the record
#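 AlphaScreen luminescence read after one hour at 37 °C in darkness. Pin-transferred compounds met GST-Six1 and His-Eya2 protein (5X stock 250 nM/500 nM) plus glutathione donor and Ni-chelate acceptor beads (5X, 50 ug/mL).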
# An asterisk follows results filed as active; ? = inconclusive; · = not tested or not shown; [ ] = dose if it differs, or a comment.
smiles	Sfp inh	CtBP-E1A inh	TRPV1 potentiator	D2 PAM	PINK1 expr mod	D2 agonist	Six1-Eya2 blk
COc1ccc(NC(=O)/C(=C\c2ccco2)NC(=O)c2ccco2)cc1	2%	1	8	-5	1.8%	-0.1	1
COc1cc(OC)cc(-c2c(-c3cccs3)c3cc(-c4ccc5c(c4)OCO5)ccc3n2C)c1	·	0	5	-2	2.9%	-2.6	-10
COc1c(C)cccc1C(=O)Nc1ccc(N2CCN(C(=O)c3ccccc3C)CC2)cc1	-17%	-11	0	21	-0.8%	-3.4	-15
CCOc1ccc(/C=N/NC(=O)CN2CCCCC2)cc1OCC	21%	-1	-4	-2	1.4%	3.4	-5
O=C(Nc1cccc(Cl)c1)c1csc(-c2ccccc2)n1	?	21	17	-13	0.5%[38.3 µM]	0.0	17
C=CCN1C(=O)C2(OCCCO2)c2c(C)ccc(C)c21	5%	-2	-23	-3	2.3%	-3.1	0
CCC(C)NC(=O)C1CN(S(=O)(=O)c2ccccc2)CCN1S(=O)(=O)c1ccccc1 (stereo not drawn)	0%	4	-5	4	-1.5%	-2.5	4
Cc1c(C(=O)N2CCC(C)CC2)sc2ncnc(N(C)c3ccccc3)c12	-12%	3	-22	-10	2.2%[38.3 µM]	-1.1	4
Cc1cc(-c2ccco2)n(CC(=O)NCc2ccco2)n1	-25%	1	6	-7	-0.6%	-3.8	4
CCOc1ccc(CN2CCCC(N3CCN(c4ccc(OC)cc4)CC3)C2)cc1 (stereo not drawn)	8%	·	5	-44	0.0%	-2.2	-2
CCCCSc1ncnc2c1ncn2C1CCCCO1 (stereo not drawn)	·	0	·	0	3.0%	-4.5	11
CCc1cccc(NC(=O)CCNS(=O)(=O)c2ccc3c(c2)oc(=O)n3C)c1	18%	11	-6	-11	1.8%	-6.2	0
COc1ccc(CCN2CC(C(=O)N(C)Cc3c(C)n[nH]c3C)CCC2=O)cc1 (stereo not drawn)	19%	3	17	-3	-0.6%	-3.5	-1
COCCN=C1Sc2nc3c(C)cccc3cc2CN1Cc1ccco1	20µM*	-14	-5	-14	-0.1%	-3.8	-11
COc1ccc(NC(=O)c2cc(C3CC3)nc3c2cnn3C(C)C)cc1OC	·	·	8	-8	2.7%	-3.0	-3
c1ccc2c(c1)[nH]c1ccncc12	·	2	-47	-13	0.4%	-1.0	0
Cc1ccc(N2CC(C(=O)Nc3ccccn3)CC2=O)cc1 (stereo not drawn)	15%	-2	-18	-3	0.1%	-2.0	-1
Cn1c(=NC(=O)COc2ccccc2)sc2cc(F)cc(F)c21	9%	0	·	-7	4.0%	-6.4	-18
Cc1cnc(C(=O)OCC(=O)N(Cc2ccccc2)C(C)C)cn1	5%	5	-5	-3	0.7%	-0.1	-7
Cc1nnc(SCC(=O)Nc2c(C)n(C)n(-c3ccccc3)c2=O)n1Cc1ccccc1	17%	5	18	-6	-0.4%	-1.9	2
O=C(COc1ccc2ccccc2c1)NNC(=O)Nc1ccccc1F	4%	-13	20	-6	0.8%	-4.8	8
OCC1(Cc2ccc(Cl)cc2)CCN(Cc2ccccc2F)CC1	7%	20	-8	-25	3.1%	-4.6	2
Cc1ccc2c(c1)N(CC(=O)NC1CCCCC1)C(=O)c1cccnc1O2	8%	3	?	1	-2.7%	-2.5	2
O=C(N[C@@H]1C/C=C\C[C@H](CC(=O)N(CCO)Cc2ccccc2)C(=O)N[C@@H](Cc2ccccc2)COC1=O)OCC1c2ccccc2-c2ccccc21	·	·	·	-17	0.6%	-2.1	-10
O=C(CCC(=O)Nc1cccc([N+](=O)[O-])c1)NCc1ccccc1	11%	·	7	-12	2.4%	0.5	7

# Four of the compounds above, with each value named.
Cc1ccc(N2CC(C(=O)Nc3ccccn3)CC2=O)cc1 (stereo not drawn)
  Sfp inh: 15%
  CtBP-E1A inh: -2
  TRPV1 potentiator: -18
  D2 PAM: -3
  PINK1 expr mod: 0.1%
  D2 agonist: -2.0
  Six1-Eya2 blk: -1
COc1ccc(NC(=O)/C(=C\c2ccco2)NC(=O)c2ccco2)cc1
  Sfp inh: 2%
  CtBP-E1A inh: 1
  TRPV1 potentiator: 8
  D2 PAM: -5
  PINK1 expr mod: 1.8%
  D2 agonist: -0.1
  Six1-Eya2 blk: 1
c1ccc2c(c1)[nH]c1ccncc12
  Sfp inh: ·
  CtBP-E1A inh: 2
  TRPV1 potentiator: -47
  D2 PAM: -13
  PINK1 expr mod: 0.4%
  D2 agonist: -1.0
  Six1-Eya2 blk: 0
CCC(C)NC(=O)C1CN(S(=O)(=O)c2ccccc2)CCN1S(=O)(=O)c1ccccc1 (stereo not drawn)
  Sfp inh: 0%
  CtBP-E1A inh: 4
  TRPV1 potentiator: -5
  D2 PAM: 4
  PINK1 expr mod: -1.5%
  D2 agonist: -2.5
  Six1-Eya2 blk: 4

# Following part.
smiles	Sfp inh	CtBP-E1A inh	TRPV1 potentiator	D2 PAM	PINK1 expr mod	D2 agonist	Six1-Eya2 blk
COc1cccc2cc(C(=O)Nc3ccccc3C)/c(=N/O)oc12	9%	9	30	-5	3.6%	4.0	1
NCCN1CCN2C(=O)CN(C(=O)c3ccccc3)CC12 (stereo not drawn)	·	0	·	-3	0.0%	0.3	21
CCN1C(=O)C(CC(=O)Nc2ccc(F)cc2)N(CCCN2CCN(c3ccc(F)cc3)CC2)C1=S (stereo not drawn)	23%	-8	0	-19	2.6%	12	-18
Cc1ccc(C(CC(=O)O)NC(=O)CN2C(=O)c3ccccc3C2=O)cc1 (stereo not drawn)	6%	0	-9	-8	2.5%	-6.5	-26
Cc1cc(/C=C\c2ccc3cc(N(C)C)ccc3[n+]2C)c(C)n1-c1ccccc1	?	-10	-30	-9	?	?	-13
COc1ccc(CNC(=O)c2ccccc2C(=O)O)cc1	-5%	0	2	-14	0.2%	-2.9	2
COc1ccc(C(=O)NC(C(=O)NCc2ccccn2)C(C)C)cc1 (stereo not drawn)	14%	-6	-7	3	1.3%	1.1	-8
O=C(OCc1ccccc1)N1CCC2CC1c1cc(N3CCN(S(=O)(=O)c4cccc5ccccc45)CC3)ccc12 (stereo not drawn)	·	3	·	-2	-0.3%	-1.3	-2
CCCCCCSc1nc(O)c(C2OC(=O)c3c2ccc(OC)c3OC)c(=O)n1-c1ccccc1 (stereo not drawn)	6%	9	8	-20	-0.1%	-1.3	-4
O=C(COc1ccc(Cl)cc1)N(Cc1ccccc1)c1ccccn1	2%	8	-13	-13	-0.6%	-6.5	11
O=C(COC(=O)CCS(=O)(=O)c1ccc(Cl)cc1)NCCc1ccccc1	7%	10	8	-7	6.2%	-6.9	-3
Cc1ccc(OCc2nn3c(-c4ccco4)nnc3s2)cc1	6%	1	4	8	0.1%	0.6	2
CCOC(=O)Cn1nc(-c2ccccc2)c(-c2ccccc2)nc1=O	-18%	1	18	3	-2.3%	0.5	3
O=C1CCCN1CCCNCC(O)c1ccccc1 (stereo not drawn)	-22%	10	29	0	2.0%	-1.3	1
CN1CC=C2C(C#N)=C(N)C(C#N)(C#N)C(c3cccc(Cl)c3Cl)C2C1 (stereo not drawn)	-2%	-5	20	-12	14µM*	-0.7	1
O=C(NC1CCCc2ccccc21)C1CCCO1 (stereo not drawn)	15%	-1	2	7	?	-3.2	3
O=C(NCc1ccccc1)C1=C[C@H](c2ccc3c(c2)OCO3)C[C@H](OCCCCO)O1	-12%	6	-20	15	-0.4%	4.4	1
O=C(NCCc1ccc(C(F)(F)F)cc1)C1CCC(=O)N(CCc2cccc(F)c2)C1 (stereo not drawn)	12%	5	-10	-25	0.6%	2.1	1
CCN(CC)S(=O)(=O)c1cccc(NC(=O)COc2ncnc3sccc23)c1	0%	0	2	-7	-0.4%	1.4	0
CC1CN(CCOc2ccc([N+](=O)[O-])cc2)CC(C)O1 (stereo not drawn)	-25%	9	-14	-11	0.1%	-1.3	10
C=CCN1C(=O)C(CC(=O)Nc2ccc(OC)cc2)SC1=Nc1ccc(S(N)(=O)=O)cc1 (stereo not drawn)	15%	4	-3	-6	-0.9%	-2.1	1
COc1cc(CNC(C)(C)CO)cc(Br)c1OCc1ccc(Cl)cc1	-30%	6	-13	-32	-3.1%	-1.4	8
COc1cc(CC(=O)OCC(=O)N(C)C2CCCCC2)cc(OC)c1OC	·	5	·	-1	0.3%	2.4	2
COc1ccc(NC2CCCN(C(=O)c3oc(C)cc3C)C2)cc1OC (stereo not drawn)	13%	-4	6	6	-2.4%	3.6	-1
COCCCN1C(=O)C(=O)/C(=C(/O)c2ccc3c(c2)OCCO3)C1c1ccc(C(=O)OC)cc1 (stereo not drawn)	-15%	1	-5	-15	-0.1%	0.5	6

smiles	Sfp inh	CtBP-E1A inh	TRPV1 potentiator	D2 PAM	PINK1 expr mod	D2 agonist	Six1-Eya2 blk
CC1=CC(c2ccccc2)n2ncnc2N1 (stereo not drawn)	·	3	·	-7	-0.8%	-0.7	2
O=C1NC[C@H](CCCCN2CCN(CC3CCCCC3)C(=O)C2=O)N(CC2CCCCC2)C1=O	·	0	·	·	1.0%	·	0
CCCNc1nc2c(c(=O)[nH]c(=O)n2C)n1CCCc1ccccc1	-11%	3	-10	-3	-1.0%[38.3 µM]	-1.8	4
CC(CS(=O)(=O)c1ccc2c(c1)NC(=O)CS2)C(=O)N1CCN(c2cccc(Cl)c2)CC1 (stereo not drawn)	1%	-12	-1	-10	0.2%	0.2	-8
OCC1(CO)COC(c2ccccc2)=N1	19%	-18	14	-11	-0.2%	2.1	6
CC(C)CCC1CC(CSC(=N)N)OC1=O (stereo not drawn)	-16%	-3	25	-17	-0.4%	-1.7	6
CN(C)CC(C)(C)CNC(C(=O)Nc1ccc(Cl)cc1C(F)(F)F)c1ccccc1 (stereo not drawn)	-10%	-5	-7	-9	5.1%	-0.9	-6
Cc1ccc(C)c(-c2cc(C(=O)NCc3cccs3)c3ccccc3n2)c1	12%	2	-7	-11	4.7%[38.3 µM]	-1.4	5
CNC(=S)N(CCc1c(C)[nH]c2ccccc12)Cc1cccnc1	7%	-17	-2	-3	0.2%	-5.2	4
COc1ccc(S(=O)(=O)NC(=O)C2(C)CCN2C(=O)Cc2cc(F)ccc2F)cc1 (stereo not drawn)	·	1	·	3	0.2%	-8.6	0
CCCc1nnc(SCC(=O)N2CCCC2)n1Cc1ccco1	14%	1	-1	0	2.9%	0.4	4
COc1ccc(-c2cc(C(=O)NCc3cccc(Cl)c3)[nH]n2)c(C)c1	·	0	·	-6	1.4%	4.4	-11
Cc1ccccc1S(=O)(=O)Cc1ccc(C(=O)NC2CCCCC2C)o1 (stereo not drawn)	15%	1	-9	9	1.5%	-1.7	4
COCCNC(=S)Nc1cccc2cnccc12	-16%	9	-4	0	0.7%	3.2	7
